Vif A3G: HIV-1 Vif–A3G interaction blockers – biochemical, TR-FRET, GST-Vif 1-94, biotin-A3G peptide, dose response retest, primary screen (AID 1117319) | TR-FRET GST-Vif / biotin-A3G peptide binding; higher % means a stronger effect; test concentration not given here; strong numbers were not always called active | one-dose inhibition, %; IC50 in µM for titrated hits | hit rate 0.57% among 260,000;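 active = above the screen mean plus three standard deviations and confirmed in dose response; inconclusive = results disagree or hit not tested in dose response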;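 note: Vif residues 1-94 fused to GST binding biotinylated APOBEC3G peptide 110-148; 0% = full assay without inhibitor and 100% = GST in place of GST-Vif; retest series ran down from 100 µM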
E coli growth: blocks Escherichia coli growth | hit rate 0.21% among 330,000 | OD600, 23 h; stronger effect = lower value | OD600 absorbance (test concentration not listed);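 active = OD600 absorbance below the run mean of sample wells minus 3.6 SD, in any replicate, cut at about 0.56 in these data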;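 note: stock transfer was 300 nL into about 60 µL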
B2AR ag: activates human beta-2 adrenergic receptor causing internalization; Am2.2-beta2AR cells, FAP receptor internalization, flow cytometry; reference of the scale not given here; AID 504454; hit rate 0.43% among 340,000; response, % (test concentration not listed); P07550;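 active = response above a set limit, near 3 SD of response in nonfluorescent compounds, cut at about 42% in these data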;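 note: stock transfer was 100 nL into about 11 µL; a reference agonist was the positive control; negative values mostly stem from fluorescent compounds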
Target sequence (P07550 whole entry, looked up): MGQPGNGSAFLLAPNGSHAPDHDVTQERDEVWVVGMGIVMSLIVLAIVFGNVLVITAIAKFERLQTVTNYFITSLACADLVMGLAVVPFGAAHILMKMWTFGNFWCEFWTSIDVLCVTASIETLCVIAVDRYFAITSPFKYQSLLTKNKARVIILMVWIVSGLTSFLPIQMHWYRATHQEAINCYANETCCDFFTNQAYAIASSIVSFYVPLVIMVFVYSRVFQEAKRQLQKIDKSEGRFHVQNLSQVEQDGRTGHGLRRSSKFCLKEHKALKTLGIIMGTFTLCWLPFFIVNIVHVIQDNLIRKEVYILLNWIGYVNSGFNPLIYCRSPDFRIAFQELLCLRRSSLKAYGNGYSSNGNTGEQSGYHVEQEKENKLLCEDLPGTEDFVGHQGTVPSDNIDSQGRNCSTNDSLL
UCH37 DUB inh: human UCH37 deubiquitinating enzyme inhibition; purified proteasome/UCH37, Ub-AMC cleavage fluorescence; Q9Y5K5; AID 588478; hit rate 0.33% among 330,000; inhibition, % (no concentration beside the values);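 active = mean of two replicates above 20%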;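 note: 0% = compound-free wells with enzyme and 100% = wells lacking proteasome; stock transfer was 100 nL into about 20 µL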
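Material: human UCH37 enzyme supplied as purified proteasome complex / Amount: 0.15 nM proteasome as dispensed / Buffer or medium: pH 7.4 Tris-HCl (50 mM) with ovalbumin, ATP-MgCl2, DTT / Times: preincubation 30 min, reaction 25 min, room temperature / Technique: AMC fluorescence from Ub-AMC cleavage, excitation 355 nm, emission 460 nm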
HNF4A DNA FP: change in binding of human HNF4 alpha to DNA | activity change, % at 10 µM | HNF4a-FITC DNA binding, fluorescence polarization, 1 h | AID 1224865 | hit rate 0.3% among 360,000; in the data active = activity change above about 30%, passing the limit was not always enough;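 note: controls were the assay level and a saturating level of protein; the project sought stronger binding though the title names inhibitors; some compounds called inactive have numbers as strong as hits; positive values seem to mean higher polarization but the record does not say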
Target sequence (P41235 whole entry, looked up): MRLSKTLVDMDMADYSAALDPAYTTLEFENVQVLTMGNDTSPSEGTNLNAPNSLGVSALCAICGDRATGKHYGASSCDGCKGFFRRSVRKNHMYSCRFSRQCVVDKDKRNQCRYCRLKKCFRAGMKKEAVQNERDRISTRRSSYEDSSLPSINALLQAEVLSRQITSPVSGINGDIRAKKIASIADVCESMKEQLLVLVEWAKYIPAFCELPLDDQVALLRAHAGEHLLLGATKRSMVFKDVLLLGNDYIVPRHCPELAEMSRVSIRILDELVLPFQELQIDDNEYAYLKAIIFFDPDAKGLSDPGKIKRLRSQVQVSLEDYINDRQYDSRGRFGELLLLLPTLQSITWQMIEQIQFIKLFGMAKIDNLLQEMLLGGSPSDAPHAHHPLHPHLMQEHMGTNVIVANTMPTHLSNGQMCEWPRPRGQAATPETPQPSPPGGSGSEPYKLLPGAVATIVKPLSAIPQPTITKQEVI
LANA-H2B inh: blocks KSHV LANA binding to histone H2A/H2B | Q9QR71 | cell-free LANA-H2A/H2B peptide, fluorescence polarization | inhibition, % (test concentration not listed) | hit rate 0.6% among 320,000 | AID 2629; in the data active = inhibition mostly above about 10%, no sharp cut-off; inactive = mostly below about 6.7%;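 note: stock transfer was 7.5 nL into about 10 µL; 0% = median of vehicle wells and 100% = median of positive control wells; one replicate is shown; the record names a cut of 25% in any replicate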
Bfl-1 A1 inh: inhibitors of the anti-apoptotic protein A1, read as caspase activation | MEF A1-2A-BIM cells, Caspase-Glo 3/7 luminescence, 3 h; percent of clofoctol response, vehicle zero | caspase activation, % (test concentration not listed) | hit rate 0.066% among 330,000;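 active = over half of replicate activation scores above 10%, or exactly half above 10 with the replicate mean above 10; inconclusive = replicate mean below 10 yet half the replicates above 10; inactive = over half of replicates below 10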;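 note: wells of about 30 µL received 50 nL stock; many hits fall short of the cut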
Active calls of the source: *; i = inactive; u = inconclusive; x = no result given; & = joins results of further samples.

SMILES	Vif A3G	E coli growth	B2AR ag	UCH37 DUB inh	HNF4A DNA FP	LANA-H2B inh	Bfl-1 A1 inh
COc1ccccc1CNC(=O)CCNC(=O)Cn1ccc2ccccc2c1=O	-2%&4%	0.67	7	1.8	0.1	0.2	-1.0
COc1ccc(Cl)cc1NC(=O)COC(=O)CNC(=O)c1ccc([N+](=O)[O-])c(C)c1	x	0.66	-4	5.9	3.4	1.1	-0.2
Cc1c(O)ccc2cc(S(=O)(=O)c3ccccc3)c(=O)oc12	x	0.67	4	i	-18	1.4	-0.1
COc1ccccc1-c1sc2ccccc2c1-c1ccc(OCCN2CCOCC2)cc1	-6%	0.71	5	-6.8	0.1	x	x
CCC1CN(C(=O)N2CCC(C(=O)NCc3ccc(OC)cc3OC)CC2)c2ccccc2O1 (stereo not drawn)	0%	0.72	-2	6.1	-1.6	-8.9	0.3
CCCCN1C(Nc2ccccc2)=NC[C@@H]1C	x	x	-6	4.0	3.7	0.8	-0.7
O=C1C=CC(=O)N1c1cccc(-c2ccccc2)c1	u	0.7	97*	0.2	3.0	-1.8	13*
CCOC(=O)c1[nH]c(CN2CCN(c3ccc(OC)cc3)CC2)c(C(=O)OCC)c1C	x	0.68	0	0.7	2.7	-1.6	-0.2
CCOC(=O)C(C)Sc1nnc(Cn2c(=O)sc3ccccc32)n1-c1ccccc1 (stereo not drawn)	9%	0.73	4	3.5	0.1	-3.6	0.9
COc1ccccc1C(=O)NCc1nnc(SC(C)C(=O)Nc2nccs2)n1C (stereo not drawn)	-2%	x	-2	x	0.1	0.2	0.1
O=C(O)CCN1C(=O)c2ccccc2C1=O	2%	0.69	12	0.8	1.2	-0.1	0.3
CCCS(=O)(=O)N1CCC(C(=O)NCCCOCC)CC1	12%	0.72	3	-0.7	7.0	-0.4	0.5
c1csc(CCNc2ncnc3sc4c(c23)CCC4)c1	0%	0.66	-11	4.9	0.6	2.0	-0.1
Cc1ccc(C(=O)N2CCN(c3ccccc3)CC2)cc1NC(=O)c1ccco1	x	0.67	-3	-1.0	0.5	-2.9	1.5
CCc1cc(=O)[nH]c(SCCC(F)=C(F)F)n1	7%	0.66	-4	1.1	-0.4	3.9	0.6
O=C(O)CN=C(NS(=O)(=O)c1ccc(Cl)cc1)c1ccc(F)cc1	5%	0.66	1	1.2	-6.2	-1.2	0.4
Cc1cnc(C(=O)OCc2ccc(Br)cc2)cn1	-6%	0.65	1	0.5	9.2	1.7	0.8
COc1ccc(OCc2nn3c(-c4cccc(OC)c4)nnc3s2)cc1	-10%	0.8	-5	1.4	-2.4	4.1	-0.3
CCOc1ccc(S(=O)(=O)N2CCOCC2)cc1NC(=O)CN1C(=O)NC(C)(c2ccc(C)cc2)C1=O (stereo not drawn)	4%	0.69	8	-17	3.2	x	x
O=C(Nc1ccccc1)c1cccc(-c2nnc(-c3ccccc3)o2)c1	-3%	0.72	-8	1.0	-1.8	1.0	2.9
O=C(COC(=O)c1ccc(O)cc1)Nc1cc(C(F)(F)F)ccc1N1CCOCC1	x	0.63	13	5.4	6.3	5.3	-1.1
CCn1c(SCC(=O)Nc2ccc(C)cc2)nc2nc3c(cc2c1=O)CCCC3	x	0.71	-4	0.8	0.6	x	0.9
CCCNc1nc(-c2cc(C(=O)Nc3ccccc3)on2)cc(C(C)C)n1	x	x	-4	x	0.2	2.3	-0.5
CC1CN(Cc2csc(-c3ccc(Cl)cc3)n2)CC(C)O1 (stereo not drawn)	5%	0.67	4	4.7	-1.5	-1.6	-1.8
CC1=C(C(=O)N2CCN(c3cc(C)ccc3C)CC2)C2(CCCCC2)OC1=O	-4%	0.73	7	5.9	-2.9	0.9	0.5
COc1cccc(-c2nnc(NC(=O)c3ccccc3Br)o2)c1	x	0.68	-11	3.8	-0.6	-8.8	0.4
O=C(Nc1ccc(F)cc1)Nc1ccc2ccccc2n1	-6%	0.68	-4	4.7	-1.2	-1.2	-0.7
OCCCc1cn(CC2CCCCC2)nn1	x	0.71	1	3.1	-0.7	0.6	0.1
O=C(NCCC1=CCCCC1)C1CC(=O)N(C2CCCCC2)C1 (stereo not drawn)	0%	0.72	4	3.0	4.8	5.7	-0.7
COc1ccc(NC(=O)c2cc(Cl)ccc2Cl)c([N+](=O)[O-])c1	17%	0.72	-18	2.7	-1.3	-5.4	0.5
COc1ccc(C2CC(=O)Oc3c(C(CCN4CCCCC4)c4ccc(N(C)C)cc4)c(OC)cc(OC)c32)cc1 (stereo not drawn)	12%	0.66	15	1.0	5.6	1.4	0.3
CC(=O)c1ccc(N2CCN(CN3C(=O)CC4(CCCC4)C3=O)CC2)c(F)c1	-4%	0.69	-5	0.9	0.7	2.0	1.1
COc1cccc(NC(=O)c2ccccc2-c2nc(-c3ccc(F)cc3)no2)c1	-2%	0.66	0	-1.7	-1.8	1.9	0.2
CC1(C)C2CCC(C2)C1(C)NC(=O)CNCc1cccs1 (stereo not drawn)	22%	x	0	x	0.8	-0.3	0.1
N/C(=N\OC(=O)CCCOc1ccccc1)c1ccc(Br)cc1	8%	x	-3	5.2	-0.5	-6.0	0.2
Cc1ccccc1OCC(=O)OC1CCN(C)CC1	-1%	0.69	5	1.5	-0.2	2.9	-1.7
Cc1cc(C)cc(NC(=O)C[n+]2ccccc2)c1	-5%	0.67	6	4.0	0.0	1.5	-2.3
CN(C)/C=C/C(=O)c1ncc(C(F)(F)F)cc1Cl	-4%	0.69	1	4.9	1.0	3.2	-0.4
Cc1ccc(CNC(=O)C2CCCN2S(=O)(=O)c2ccc(F)cc2)cc1 (stereo not drawn)	x	0.66	4	-0.6	-2.1	2.2	1.6
O=C1C=C(c2cccc(Cl)c2O)C[C@@H](c2ccc3c(c2)OCO3)C1	x	x	8	3.4	-2.4	1.6	0.4
Cc1ccc(S(=O)(=O)N(C)C)cc1NC(=O)CSc1ncc(C(F)(F)F)cc1Cl	-2%	0.69	-16	2.3	4.2	3.3	2.0
Nc1c(N2CCOCC2)cc(Cl)c2nonc12	11%	0.67	46*	7.9	-0.5	2.4	0.6
Cc1ccc(C(=O)C2=C(O)C(=O)N(CCCN(C)C)C23C(=O)N(C)c2ccccc23)o1 (stereo not drawn)	x	0.72	-12	2.7	-0.9	2.2	0.2
CCCCc1ncc(CN2CCC(CC3CCCCO3)(C(=O)OCC)CC2)[nH]1 (stereo not drawn)	x	0.7	-8	3.3	-2.0	0.5	0.1
Cc1ccc(OCC(=O)N(C)C2CCCCC2)c([N+](=O)[O-])n1	-8%	0.68	-3	5.9	1.7	-1.9	-0.6
CCc1noc(C)c1C(=O)Nc1ccc(-c2nnc3n2CCCCC3)cc1	4%	0.62	1	1.6	-3.2	0.9	-0.5
Cc1ccc(C)c(NC(=O)/C(C#N)=C/c2ccc(Sc3nncn3C)c([N+](=O)[O-])c2)c1	0%	x	x	x	x	0.7	1.6
NNC(=S)NC1CCCCC1	29%	0.67	-266	-0.8	-0.8	-4.5	0.5
Cc1ccc(NC(=O)C(=O)NCc2ccc(/C=N/NC(=O)c3c(C)nc4cc(C)ccn34)o2)cc1	19%	x	x	x	x	4.1	-2.4
O=C(COC(=O)c1ccc(F)cc1Cl)NC(=O)NC1CCCC1	6%	0.66	-4	-2.6	2.6	-3.6	-0.1
CCOC(=O)CN(C)C(=O)CCc1nnc(-c2ccsc2)o1	-6%	0.62	1	-0.8	1.7	-2.1	-0.4
c1nc(N2CCOCC2)c2c3c(sc2n1)CCCC3	2%	0.72	-10	-11	1.3	3.4	0.5
CC(=O)Nc1ccc(OCC(O)CN2CCN(c3ccc(F)cc3)CC2)cc1 (stereo not drawn)	x	0.63	6	1.5	-3.8	3.1	-0.2
COc1ccc(C(C)(C)C)cc1NC(=O)CCCN1C(=O)NC(C)(C)C1=O	1%	0.7	-6	-1.2	2.0	-4.5	-0.1
CCCC(NS(=O)(=O)c1ccc(Br)cc1)C(=O)O (stereo not drawn)	-1%	0.63	10	1.9	-2.0	1.0	0.0
Nc1c(C(=O)NCc2ccccc2)nnn1Cc1cccc(Cl)c1	6%	0.75	-8	0.4	2.6	-0.3	-0.5
O=[N+]([O-])c1ccc(-n2nnnc2-c2ccccc2)c([N+](=O)[O-])c1	x	0.63	4	7.2	-1.6	-17	0.6
O=C(O)C1CC=CCC1C(=O)NCCCCc1ccccc1 (stereo not drawn)	2%	0.7	-2	1.9	0.2	3.5	-0.3
CCN(CC)Cc1csc(C(N)=O)c1	-4%	0.72	-4	0.7	1.7	-2.4	0.1
Cc1nn(CC(=O)Nc2ccc3c(c2)CCC3)c(C)c1[N+](=O)[O-]	5%	0.7	6	2.7	1.3	4.0	-1.8

Structures shown so far that have an NH in an aromatic ring (three):
SMILES	Vif A3G	E coli growth	B2AR ag	UCH37 DUB inh	HNF4A DNA FP	LANA-H2B inh	Bfl-1 A1 inh
CCOC(=O)c1[nH]c(CN2CCN(c3ccc(OC)cc3)CC2)c(C(=O)OCC)c1C	x	0.68	0	0.7	2.7	-1.6	-0.2
CCc1cc(=O)[nH]c(SCCC(F)=C(F)F)n1	7%	0.66	-4	1.1	-0.4	3.9	0.6
CCCCc1ncc(CN2CCC(CC3CCCCO3)(C(=O)OCC)CC2)[nH]1 (stereo not drawn)	x	0.7	-8	3.3	-2.0	0.5	0.1

Additional records
SMILES	Vif A3G	E coli growth	B2AR ag	UCH37 DUB inh	HNF4A DNA FP	LANA-H2B inh	Bfl-1 A1 inh
CC(C)(C)c1ccc(C(=O)N2CCCN(C(=O)c3ccc(C(C)(C)C)cc3)CC2)cc1	-5%	0.69	-1	1.3	-0.5	4.3	0.2
CN(CC(=O)NCc1ccccc1F)S(=O)(=O)c1ccc(Cl)cc1	-4%	0.63	10	2.6	-2.3	1.5	-0.1
Cc1cc(=O)oc2cc(OCC(=O)c3ccccc3)ccc12	-1%	0.66	-9	-12	-3.9	11	0.9
CCS(=O)(=O)N1Cc2ccccc2CC1C(=O)NC(C)C12CC3CC(CC(C3)C1)C2 (stereo not drawn)	-3%	0.69	4	-0.8	-2.7	-1.5	0.5
Cc1ccc(S(=O)(=O)NC(=O)N2CCCC(C)(C)C2)cc1	3%	0.77	6	1.8	2.6	7.7	0.0
CC(C)N(C(=O)Cn1c(-c2cccnc2)ccc(C#N)c1=O)C(C)C	-12%	0.66	-10	0.9	5.2	-5.5	-0.6
Cc1nnc2n(-c3ccccc3)c(=O)c3c4c(sc3n12)COC(C(C)C)C4 (stereo not drawn)	4%	0.71	4	2.0	4.6	-6.7	0.1
COc1ccccc1OCc1cc(-c2ccccc2)no1	6%	0.7	-8	1.6	2.7	-3.3	0.9
Cc1cnc(NC(=O)CSc2nc3ccccc3c(=O)[nH]2)s1	19%	0.75	7	2.1	-0.3	1.1	1.0
O=C(Oc1ccc(Br)cc1)c1cccnc1	-5%	0.67	-4	3.3	-0.7	1.4	-0.6
Nc1ccc2nc(-c3ccccn3)[nH]c2c1	13%	0.78	4	2.3	0.8	-16	-8.5
CC(C)Oc1ccc(Cc2c(O)nc(NCCCN(C)C)[nH]c2=O)cc1	u	0.73	18	-0.3	2.7	4.4	-0.3
O=C(COC(=O)c1ccccc1OCc1ccccc1Cl)NCC1CCCO1 (stereo not drawn)	x	0.69	-1	3.6	1.5	1.0	-1.0
CCOC(=O)c1cccc(NC(=O)CCOc2ccccc2)c1	-4%	0.68	-2	0.5	2.5	6.7	-1.0
Cc1cc(NC(=O)CSCCc2ccncc2)no1	-8%	0.71	-3	0.4	-2.5	-3.8	1.9
Cc1cccc(OCC(=O)Nc2cc(NC(=O)COc3cccc(C)c3)cc(C(=O)O)c2)c1	x	0.67	1	-1.6	3.3	-3.0	0.7
O=[N+]([O-])c1cc(NS(=O)(=O)c2ccc(Cl)nc2)ccc1Cl	x	0.61	8	1.8	1.3	0.1	-0.4
